MenB inh – inhibitors of Mycobacterium tuberculosis MenB enzyme; P9WNP5; MenB enzyme assay, absorbance read-out; some hits fall short of the stated cut; inhibition, %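 (about 12 µg/mL by stock and volumes)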; 100,000 tested, 0.43% active;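 active = mean of two replicates above 30%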;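 also: 0% = no compound and 100% = wells with inactive enzyme; the first replicate is given; strong numbers were not always called active; inactives centre near -10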
Polio RdRp inh – poliovirus RNA polymerase inhibition. % elongation, % (compound at 16.7 µg/mL). poliovirus polymerase elongation, fluorescence polarization; active compounds read low. P03300. 150,000 tested, 0.66% active; in the data active = % elongation below about 90%; also: some results filed as inactive read as strong as hits
Target sequence (P03300 1749-2209 limits assumed): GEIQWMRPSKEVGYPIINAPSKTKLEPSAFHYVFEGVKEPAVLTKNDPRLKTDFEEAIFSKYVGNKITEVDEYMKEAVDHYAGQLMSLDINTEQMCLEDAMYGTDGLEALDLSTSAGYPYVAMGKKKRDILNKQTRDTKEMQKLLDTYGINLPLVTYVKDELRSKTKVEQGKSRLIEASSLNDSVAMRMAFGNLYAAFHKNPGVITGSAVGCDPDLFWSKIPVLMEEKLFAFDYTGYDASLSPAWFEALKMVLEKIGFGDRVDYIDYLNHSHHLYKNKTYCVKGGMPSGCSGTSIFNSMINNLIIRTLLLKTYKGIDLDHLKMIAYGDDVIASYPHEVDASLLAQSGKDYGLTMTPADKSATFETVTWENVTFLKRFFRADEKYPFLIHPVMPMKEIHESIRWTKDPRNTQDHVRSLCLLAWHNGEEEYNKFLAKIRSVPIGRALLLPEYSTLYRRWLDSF
MbtI inh – blocks the Mycobacterium tuberculosis siderophore enzyme MbtI; P9WFX0; purified MbtI enzyme, fluorescence intensity read-out; inhibition, %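 (about 17 µg/mL by stock and volumes)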; 100,000 tested, 0.89% active;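 active = above 50% in both replicates, above 80% if mildly self-fluorescent; inactive = the rest, strongly fluorescent compounds included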;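 also: 0% = mean of negative and 100% = mean of positive controls; one replicate is shown; some compounds called inactive have numbers as strong as hits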
Target sequence (P9WFX0 whole entry, looked up): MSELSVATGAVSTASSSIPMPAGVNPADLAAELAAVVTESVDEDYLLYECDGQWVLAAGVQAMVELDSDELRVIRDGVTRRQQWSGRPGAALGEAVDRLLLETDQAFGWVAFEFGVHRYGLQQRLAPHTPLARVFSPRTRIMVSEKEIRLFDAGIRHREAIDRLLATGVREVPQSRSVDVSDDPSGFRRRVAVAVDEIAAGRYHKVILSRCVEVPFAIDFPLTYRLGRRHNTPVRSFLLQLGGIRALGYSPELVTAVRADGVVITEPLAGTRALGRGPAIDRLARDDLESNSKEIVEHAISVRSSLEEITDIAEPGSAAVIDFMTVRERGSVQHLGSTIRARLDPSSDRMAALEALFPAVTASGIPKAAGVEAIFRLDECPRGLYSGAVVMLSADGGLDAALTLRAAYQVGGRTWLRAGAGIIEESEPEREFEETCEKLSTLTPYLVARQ
Polio RdRp inh intensity – also measured in Polio RdRp inh; calls as there; % elongation; measured here: total intensity read-out; formula for this scale not given here;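 total fluorescence in place of polarization; lower means less elongation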
An asterisk follows results filed as active; · = not tested or not shown; & = joins results of further samples.

Codes – A = MenB inh; B = Polio RdRp inh; C = Polio RdRp inh intensity; D = MbtI inh
[1] COc1ccc(C2=NOC(C(=O)N3CC4(C)CC3CC(C)(C)C4)C2)cc1OC (stereo unspecified)
  A: 0; B: 105; C: 103; D: -7
[2] COc1ccc(COCC(O)CN2CCCC(C(F)(F)F)C2)cc1 (stereo unspecified)
  A: 1; B: 101; C: 103; D: -4
[3] C/C=C1\CC(C)(CC)C(C#N)(C#N)C(N)=C1C#N (stereo unspecified)
  A: -19; B: 111; C: 115; D: ·
[4] N#CC(C#N)=CN1CCCCC1
  A: 2; B: 103; C: 105; D: -2
[5] Cc1[nH]ncc1CNC(=O)c1ccc(NC(=O)C2=CSCCO2)cc1
  A: -14; B: 101; C: 103; D: -1
[6] CCCNC(=O)Cn1c(C(=O)OC)ccc1-c1ccco1
  A: -1; B: 102; C: 99; D: -5
[7] COc1ccc(C(=O)CS(=O)(=O)c2ccc3c(c2)OCCO3)cc1OC
  A: -1; B: 101; C: 104; D: -16
[8] CCC(=O)n1c2c(c3ccccc31)Nc1ccccc1N2
  A: -33; B: 103; C: 102; D: 8
[9] Cc1ccc2cc(S(N)(=O)=O)ccc2n1
  A: -1; B: 103; C: 106; D: -22
[10] COc1ccc(C(NC(=O)C2CC=CCC2C(=O)O)c2ccccc2)cc1 (stereo unspecified)
  A: -8; B: 104; C: 102; D: ·
[11] Cn1c(N)c(C(=O)c2ccc(Cl)c(S(=O)(=O)N3CCCCCC3)c2)c(=O)n(C)c1=O
  A: -4; B: 104; C: 103; D: 0
[12] O=C(C1c2ccccc2Oc2ccccc21)N1CCc2ccccc21
  A: 13; B: 101; C: 104; D: -4
[13] O=C(CSc1nnc(NC(=O)C2CC2)s1)Nc1ccccc1F
  A: -31; B: 105; C: 100; D: -4
[14] CCC(=O)N(Cc1ccc(OC)cc1)C1CC(=O)N(c2ccc(OC)cc2)C1=O (stereo unspecified)
  A: -6; B: 103; C: 101; D: -8
[15] Cc1onc(-c2ccccc2)c1C(=O)N1CCSC1=NCc1ccccc1
  A: -15; B: 108; C: 107; D: -14
[16] N#Cc1ccccc1S(=O)(=O)N1CCN(C(=O)CCc2cccs2)CC1
  A: 8; B: 98; C: 101; D: 17
[17] CCOC(=O)C1=C(C)Nc2ccccc2N=C1NC(=O)C1CCN(S(=O)(=O)c2ccccc2)CC1
  A: -37; B: 103; C: 93; D: 1
[18] O=C(CSc1cn(CC(=O)N2CCOCC2)c2ccccc12)N1CCOCC1
  A: -6; B: 101; C: 107; D: 7
[19] COc1ccccc1/C=[N+]1\N=C([O-])C(NC(=O)c2cccc(C)c2)C1c1ccc(Cl)cc1 (stereo unspecified)
  A: -47; B: 104; C: 105; D: 6
[20] Cc1ccc(NC(=S)N2CCn3c4c(c(=O)c5cc(C)ccc53)CCC42)cc1 (stereo unspecified)
  A: -4; B: 103; C: 101; D: -187
[21] Cc1cc(C)n(C(C)CC(=O)O)n1 (stereo unspecified)
  A: 18; B: 101; C: 105; D: -6
[22] C=CCN(C(=O)c1cc2ccccc2o1)C1(C(=O)Nc2ccc(F)cc2)CCN(C(C)=O)CC1
  A: -17; B: 100; C: 101; D: 9
[23] CCC(Sc1nc2ccccc2s1)C(=O)Nc1cc(C)on1 (stereo unspecified)
  A: 26; B: 100; C: 102; D: 1
[24] CC1(O)C[C@@]23C[C@@H](O)[C@@]4(O)[C@@H](C[C@H](O)C4(C)C)[C@](C)(O)[C@@H]2CCC1[C@H]3O (stereo partly specified)
  A: -18; B: 99&99; C: 104&103; D: -13
[25] c1cc(CN2CCOCC2)ccc1CN1CCOCC1
  A: ·; B: 103; C: 100; D: 3

The results go on.
Codes – A = MenB inh; B = Polio RdRp inh; C = Polio RdRp inh intensity; D = MbtI inh
[26] CCn1c(SC)nnc1C1CCN(C(=O)NC2CCCCC2)CC1
  A: -8; B: 104; C: 101; D: -3
[27] O=C1C2C3C=CC(C3)C2C(=O)N1c1cccc2ccccc12 (stereo unspecified)
  A: -11; B: 106; C: 101; D: -6
[28] CCOC(=O)C1CCCN(C(=O)COc2ccc(C)c(C)c2)C1 (stereo unspecified)
  A: ·; B: 100; C: 95; D: 24
[29] O=C(COC(=O)CCc1ccccc1)Nc1ccc2c(c1)OCCO2
  A: -11; B: 101; C: 102; D: -1
[30] Cn1cnnc1-c1cccc(NC(=O)C(c2ccccc2)c2ccccc2)c1
  A: -19; B: 101; C: 100; D: ·
[31] Cc1ccc(-c2ccc(CCC(=O)O)n2NC(=O)c2ccco2)cc1
  A: -25; B: 105; C: 100; D: 4
[32] CC(C1CC1)n1nccc1NC(=O)c1cccc(S(C)(=O)=O)c1 (stereo unspecified)
  A: -5; B: ·; C: ·; D: -10
[33] CC1(C)CC(=O)C(N=Nc2ccc(SC(F)F)cc2)=C(O)C1
  A: -157; B: 101; C: 99; D: 12
[34] O=S(=O)(c1ccc(-c2cc(C(F)(F)F)no2)s1)N(CCN1CCOCC1)Cc1ccco1
  A: -36; B: 100; C: 102; D: -14
[35] O=C(CSCc1ccccc1)Nc1ccccc1C(=O)NCc1ccccc1
  A: -18; B: 106; C: 106; D: ·
[36] CN1C2CCC1CC(OC(c1ccccc1)c1ccccc1)C2 (stereo unspecified)
  A: 11; B: 101; C: 102; D: -15
[37] NC(=S)c1ccccn1
  A: -30; B: 20*; C: 36*; D: 10
[38] c1ccc(-c2cc(N3CCCC3)n3cnnc3n2)cc1
  A: 1; B: 101; C: 100; D: -7
[39] CC(C)NS(=O)(=O)Cc1ccccc1C#N
  A: -1; B: 101; C: 98; D: -6
[40] CNc1c(NS(=O)(=O)c2cccc(C#N)c2)c(=O)oc2ccccc12
  A: -19; B: 105; C: 104; D: 4
[41] Cc1coc2cc3oc(=O)c(CC(=O)N4CCCC4)c(C)c3cc12
  A: 4; B: 104; C: 101; D: -64
[42] COc1cccc(CN2CCCCC2C(=O)O)c1 (stereo unspecified)
  A: 6; B: 101; C: 100; D: -7
[43] O=C(O)c1ccc(-c2ccc(/C=N/N3C(=O)C4C(C3=O)C3C=CC4C34CC4)o2)cc1 (stereo unspecified)
  A: 8; B: 101; C: 103; D: -98
[44] CCOC(=O)N1CCN(C(=O)c2cc3cccnc3n(Cc3ccccc3)c2=O)CC1
  A: -5; B: 103; C: 108; D: 12
[45] N#CC12CC3CC(CC(C3)C1)C2
  A: 1; B: 101; C: 105; D: 3
[46] COc1ccc(-n2nc3ccc(N)cc3n2)cc1
  A: -102; B: 103; C: 102; D: 116
[47] O=C(COC(=O)C1CCC1)Nc1ccc(F)cc1
  A: ·; B: 103; C: 106; D: -18
[48] CCCC(CCC)(C(=O)O)C(=O)O
  A: -8; B: 104; C: 104; D: -15
[49] CCCC(=O)c1cn(CC(=O)OC)c2ccccc12
  A: -6; B: 101; C: 101; D: ·
[50] Cc1nn(-c2ccccc2)c(C)c1/C=C/C(=O)OC(C)C(N)=O (stereo unspecified)
  A: 3; B: 104; C: 111; D: 1

(listing goes on)
Codes – A = MenB inh; B = Polio RdRp inh; C = Polio RdRp inh intensity; D = MbtI inh
[51] Nc1c(S(=O)(=O)c2ccccc2)c2nc3ccccc3nc2n1Cc1ccc(S(N)(=O)=O)cc1
  A: -31; B: 100; C: 103; D: 110
[52] COc1ccc(NC(=O)Cn2c(-c3ccccc3)cn(-c3ccc(C)cc3)c2=O)cc1
  A: -10; B: 102; C: 102; D: -10
[53] C[C@]12CCC3c4ccc(O)cc4CCC3C1C[C@@H](O)[C@@H]2O (stereo partly specified)
  A: -9; B: 100; C: 102; D: -15
[54] CCN(CC)C(=O)COc1ccc2ccccc2c1Br
  A: -31; B: 105; C: 99; D: ·
[55] COCCOC(=O)c1sc(C)c(C(=O)OC)c1N
  A: -3; B: 112; C: 116; D: 7
[56] O=C(Nc1ccc2c(c1)OCCO2)C1Cc2ccccc2N1C(=O)OCc1ccccc1 (stereo unspecified)
  A: 2; B: 108; C: 105; D: -4
[57] O=C(CCC1CCCCC1)Nc1ccc(O)cc1
  A: 6; B: 101; C: 104; D: -19
[58] CCCCN1C(=O)/C(=C2\SC(=Nc3ccc(Cl)cc3)N(C)C2=O)c2ccccc21
  A: -16; B: 103; C: 104; D: -2
[59] CC1=C(c2ccc(C)cc2)S(=O)(=O)NC1=NC1CCCC(C)C1C (stereo unspecified)
  A: -9; B: 102; C: 106; D: -10
[60] O=C1CC(c2ccc(Br)cc2)C2=C(CCCC2=O)N1 (stereo unspecified)
  A: 16; B: 100; C: 104; D: 13
[61] CN(C)c1nc(-c2ccccc2)c(CC(=O)O)s1
  A: 12; B: 92; C: 107; D: 15
[62] Cc1cc(C)n2nc(C(=O)N(C/C=C/c3ccccc3)c3ccc4c(c3)OCCO4)nc2n1
  A: 11; B: 109; C: 121; D: 3
[63] O=C(CSc1nnc(-c2ccc(Cl)s2)o1)N1CCCc2ccccc21
  A: -37; B: 106; C: 102; D: -5
[64] O=C(NCCc1ccsc1)c1cnn2ccccc12
  A: 2; B: 102; C: 105; D: 109
[65] CC(=O)Oc1cccc2ccc(=O)[nH]c12
  A: 0; B: 109; C: 103; D: ·
[66] CCOc1ccc(C2Nn3c(nnc3-c3ccccc3)SC2C(=O)N2C(C)CCCC2C)cc1 (stereo unspecified)
  A: -3; B: 104; C: 99; D: 2
[67] NS(=O)(=O)c1ccc(NC(=O)C2CCCO2)cc1 (stereo unspecified)
  A: -1; B: 105; C: 103; D: -6
[68] CC1CCCCN1c1nnc(NC(=O)Nc2ccccc2C(F)(F)F)s1 (stereo unspecified)
  A: -12; B: 102; C: 102; D: -3
[69] Cc1nc(-c2ccccc2)sc1C(=O)NCc1ccco1
  A: -6; B: 102; C: 102; D: -32
[70] Cc1ccc2[nH]c3c(c2c1)CCC/C3=N/O
  A: -19; B: 106; C: 102; D: 41
[71] O=S(=O)(Nc1ccc(S(=O)(=O)Nc2ncccn2)cc1)c1ccccc1
  A: 10; B: 101; C: 99; D: -1
[72] CCC(Sc1nc2ncccc2[nH]1)C(=O)N1CCCCCC1 (stereo unspecified)
  A: -25; B: 103; C: 104; D: 11
[73] CCOC(=O)c1oc2ccccc2c1COC(=O)C12CCC(=O)N1c1ccccc1S2 (stereo unspecified)
  A: -14; B: 101; C: 102; D: 4
[74] Cc1cc(=O)n2c(n1)NC(Nc1ccc(C(C)C)cc1)=NC2c1ccccc1 (stereo unspecified)
  A: 8; B: 101; C: 102; D: -1
[75] CCc1ccc(N2C(N)=C(C#N)C3(C(=O)Nc4ccccc43)C3=C2CCCC3=O)cc1 (stereo unspecified)
  A: -2; B: 98; C: 103; D: -6

(listing goes on)
Codes – A = MenB inh; B = Polio RdRp inh; C = Polio RdRp inh intensity; D = MbtI inh
[76] N#CCC(=O)c1ccc(N)cc1
  A: -127; B: 101; C: 102; D: 7
[77] Cc1nn(C2CCS(=O)(=O)C2)c(Cl)c1CNCC(=O)Nc1ccc(F)c(F)c1 (stereo unspecified)
  A: -6; B: 104; C: 98; D: 7
[78] CC(C)CC(NC(=O)Nc1cccc2ccccc12)C(=O)O (stereo unspecified)
  A: 9; B: 107; C: 97; D: 49
[79] CCn1nc(C)c(NC(=S)NCC2CCCO2)c1C (stereo unspecified)
  A: -19; B: 101; C: 104; D: -8
[80] CCCNC(=O)c1ccc(CS(=O)(=O)c2ccccc2C)o1
  A: 5; B: 101; C: 99; D: 0
[81] Cc1[nH]c(=O)[nH]c(=O)c1/C=C/C(=O)O
  A: -18; B: 102; C: 109; D: 5
[82] O=C(c1ccc(CS(=O)c2ccc(Cl)cc2)o1)N1CCCC1 (stereo unspecified)
  A: -7; B: 103; C: 106; D: 7
[83] CCc1ccc(C2C(C#N)=C(N)OC(C)=C2C(=O)OC)cc1 (stereo unspecified)
  A: 6; B: 99; C: 104; D: 42
[84] Cc1cc(C)nc(N2CC(=O)N=C2N)n1
  A: 3; B: 103; C: 107; D: 0
[85] CCOc1ccc(NC(=O)N(Cc2ccc(C)cc2)Cc2ccccn2)cc1
  A: -35; B: 100; C: 101; D: -8
[86] S=C(NC1CCCCC1)C12CCC3CC(CC(C3)C1)C2
  A: -9; B: 102; C: 107; D: 6

4 entries drawn at random from the list so far, as already listed:
Codes – A = MenB inh; B = Polio RdRp inh; C = Polio RdRp inh intensity; D = MbtI inh
[82] O=C(c1ccc(CS(=O)c2ccc(Cl)cc2)o1)N1CCCC1 (stereo unspecified)
  A: -7; B: 103; C: 106; D: 7
[84] Cc1cc(C)nc(N2CC(=O)N=C2N)n1
  A: 3; B: 103; C: 107; D: 0
[85] CCOc1ccc(NC(=O)N(Cc2ccc(C)cc2)Cc2ccccn2)cc1
  A: -35; B: 100; C: 101; D: -8
[86] S=C(NC1CCCCC1)C12CCC3CC(CC(C3)C1)C2
  A: -9; B: 102; C: 107; D: 6

Another view of some results above.
#	canonical_smiles	MenB inh	Polio RdRp inh	Polio RdRp inh intensity	MbtI inh
83	CCc1ccc(C2C(C#N)=C(N)OC(C)=C2C(=O)OC)cc1 (stereo unspecified)	6	99	104	42
84	Cc1cc(C)nc(N2CC(=O)N=C2N)n1	3	103	107	0
85	CCOc1ccc(NC(=O)N(Cc2ccc(C)cc2)Cc2ccccn2)cc1	-35	100	101	-8
86	S=C(NC1CCCCC1)C12CCC3CC(CC(C3)C1)C2	-9	102	107	6

Screens (PubChem)
